Compound activity: PubChem BioAssay, National Center for Advancing Translational Sciences (NCATS)
Rango-impB inh: Rango-importin beta binding inhibition. Rango CFP/YFP FRET sensor + importin beta, 45 min. Potency, µM (doses to about 92.2 µM), without a hit: top-dose inhibition of complex formation. Q14974. 340,000 tested, 0.031% active. AID 540263; active = rising FRET ratio curve, often small or poorly fitted; inconclusive = mostly compound fluorescence or quenching in the first reads; inactive = flat curves in all reads;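 further: potency means the concentration at half of the fitted maximal effect; 0% = DMSO wells and 100% = buffer wells lacking importin beta; nearly all actives have a fitted effect of over 15% in size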
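Inhibition scored from the CFP 486 nm/YFP 530 nm FRET ratio 45 min after adding 0.125 microM importin beta to 50 nM Rango biosensor preincubated 5 min with compound (room temperature, PBS with DTT, Tween-20, BSA). No-importin wells as positive control.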
Rango dissoc inh: prevents RanGTP from dissociating the Rango-importin beta complex | Potency, µM (doses to about 46.1 µM), without a hit: at the highest dose activity change, negative = inhibition | Biochemical FRET Rango-importin beta, RanGTP-induced dissociation | O95149+P62826 | 340,000 tested, 0.071% active; active means falling FRET ratio curve, often poorly fitted, with flat reads before Ran was added; inconclusive means other falling curves, or compound fluorescence or quenching; inactive means flat or rising ratio curve;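 further: potency means the concentration at half of the fitted maximal effect; % of control where 0% means no effect; nearly all actives have a fitted effect of over 45% in size; -100% = wells without RanGTP and RCC1; the record marks most hits as doubtful in a second field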
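Recombinant Rango FRET biosensor (EYFP–snurportin 1 IBB–cerulean CFP10) at 0.1 uM premixed with 0.25 uM importin beta in PBS, 1 mM DTT, 0.02% Tween-20, 0.1% BSA. Compound added 5 min; RanGTP-RCC1 (0.6 uM Ran, 2 mM GTP, 0.2 uM RCC1) then triggers release, read at 45 min.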
miR-21 FLuc: miR-21 reporter, rising signal; HeLa miR-21 FLuc reporter, luciferase, 48 h; Potency, µM (top dose mostly 38.3 µM), for the others: at the highest dose reporter change, positive = more light; 340,000 tested, under 10 active; AID 2288; active = well fitted rising curve with a large enough effect; inconclusive = small, poorly fitted or top-dose-only effect; inactive = no such curve, though single readings can be large or run the other way;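 further: % of control where 0% means no effect; miR-21 action dims this reporter so a rising signal means less miR-21 action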
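HeLa cells endogenously expressing miR-21, stably carrying CMV-driven firefly luciferase with a downstream miR-21 binding site, 2000 cells/well. Titrations up to approximately 40 uM, 48 hours; luciferase luminescence read.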
GLA inh pH 4.5: inhibitors of human alpha-galactosidase A at pH 4.5; activity change, negative = inhibition, % at 105 µM; P06280; 230,000 tested, under 10 active; purified enzyme, 4-MU-alpha-Gal fluorescence, pH 4.5; inconclusive = small, poorly fitted or top-dose-only inhibition, or a rising curve; inactive = flat fitted curve, though single readings scatter; no compound was filed as active;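 further: 0% = full activity with enzyme and -100% = basal without enzyme; dose as in the result columns while the protocol names 77 µM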
Target sequence (P06280 whole entry, looked up): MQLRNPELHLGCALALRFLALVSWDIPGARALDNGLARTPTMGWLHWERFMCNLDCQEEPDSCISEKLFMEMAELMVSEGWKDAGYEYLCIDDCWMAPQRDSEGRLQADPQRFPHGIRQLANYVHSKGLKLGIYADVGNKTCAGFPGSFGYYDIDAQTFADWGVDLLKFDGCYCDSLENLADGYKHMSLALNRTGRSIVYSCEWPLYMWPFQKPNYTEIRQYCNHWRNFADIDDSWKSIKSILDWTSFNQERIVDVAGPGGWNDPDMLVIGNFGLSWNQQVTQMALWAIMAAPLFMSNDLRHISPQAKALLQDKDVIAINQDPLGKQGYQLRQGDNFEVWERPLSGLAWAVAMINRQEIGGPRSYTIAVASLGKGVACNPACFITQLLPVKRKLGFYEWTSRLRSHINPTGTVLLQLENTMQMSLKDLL
* marks the source's active call; other numbers are inactive results; u = inconclusive; x = no result given; & = joins results of further samples. Only part of the results is shown; rates above refer to the full screens.

Rango-impB inh,Rango dissoc inh,miR-21 FLuc,GLA inh pH 4.5,compound
-1.5%,-11%,-8%,1,CC(=O)Nc1ccc(OS(=O)(=O)c2ccc(C)cc2C)cc1
-5.5%,0%,-4%,3,CC1(c2ccc(Cl)cc2)NC(=O)N(CC(=O)NC(=O)NCc2ccco2)C1=O (centres undefined)
u,2%,x,x,CC(C)C(=O)C1=Cc2cccc([N+](=O)[O-])c2OC1N1CCOCC1 (centres undefined)
-2.1%,-12%,-17%,-6,CN(C)c1ccc(/C=N/NC(=O)COc2ccccc2)cc1
6.1%,2%,-11%,0,CCC(=O)Nc1nc(C)c(C(=O)NC2CCCCC2)s1
-1.5%,-6%,-6%,-11,CCOC(=O)N1CCC(NC(=O)CSc2cc(=O)n(C)c3ccccc23)CC1
1.4%,2%,x,x,Cc1ccc(CN(C)C(=O)c2cccc(S(=O)(=O)N3CCc4ccccc43)c2)cc1
3.8%,0%,-21%,4,CCOC(=O)c1c(NC(=O)c2ccoc2C)sc(C(=O)N(C)C)c1C
5.5%,-3%,-28%,0,CN(C)/C=N/C(=S)Nc1ccc(F)cc1
0.3%,-5%,-1%,10,CC(C)(C)C(=O)Oc1cc(N)n(S(=O)(=O)c2ccccc2)n1
-0.4%,1%,4%,2,Cc1cc(N2CCCC2)nc2ccc(NC(=S)NCCCOC(C)C)cc12
-4.6%,6%,-6%,-2,COc1ccc(CCNC(=O)c2nnn(CC(=O)Nc3ccccc3C)c2N)cc1OC
-0.1%,1%,x,x,CN(C)S(=O)(=O)c1cc(NC(=O)C2=COCCO2)ccc1Cl
-3.7%,-4%,-1%,x,COc1ccccc1OCC(=O)NNC(=O)CCCC(=O)NNC(=O)COc1ccccc1OC
0.3%,-4%,1%&-4%,x,COc1ccc(CNC(=O)CN2C(=O)COc3ccc(S(=O)(=O)N4CCCCC4)cc32)cc1
-0.3%,-10%,3%,1,Cc1cc(C)n(CC(C)NCc2c(C(=O)N3CCOCC3)nc3c(C)cccn23)n1 (centres undefined)
-3.9%,6%,0%,x,CCOc1c(C)cnc2c1c(=O)n(Cc1ccc(Cl)cc1)c(=O)n2C
0.4%,4%,-1%,2,CCCCOCC1CC(CC#CCN2CCCCC2)C(=O)O1 (centres undefined)
-2.7%,44%,x,x,Cc1cccc(C(=O)O[C@@H]2[C@H](Cc3ccccc3)NS(=O)(=O)[C@H]3C[C@@H]4C=C[C@]23O4)c1
-4.2%,-5%,-17%,x,O=C(Nc1ccc(Cl)cc1)Nc1ccc(Br)cn1
4.7%,-5%,-5%,-9,COc1ccc(Cl)cc1NC(=O)c1cc(-c2ccc(C)cc2O)n[nH]1
5.0%,2%,-21%,0,COc1ccc(NC(=O)N2CCC(Cc3ccccc3)CC2)cc1
0.1%,2%,-2%,-12,COc1cc(C(=O)O/N=C2/C=CC(=O)C(C)=C2C)cc(OC)c1OC
0.2%,18%,-62%,6,COC(=O)c1sc(-c2cccs2)cc1N
0.2%,10%,-10%,x,C/C(=N\NC(=O)c1ccccc1O)c1cccc(NC(=O)c2ccccc2)c1

Of the compounds above, these contain a thiophene ring, fused or not.
Rango-impB inh,Rango dissoc inh,miR-21 FLuc,GLA inh pH 4.5,compound
3.8%,0%,-21%,4,CCOC(=O)c1c(NC(=O)c2ccoc2C)sc(C(=O)N(C)C)c1C
0.2%,18%,-62%,6,COC(=O)c1sc(-c2cccs2)cc1N

(further entries)
Rango-impB inh,Rango dissoc inh,miR-21 FLuc,GLA inh pH 4.5,compound
0.1%,19%,-3%,6,CCOC(=O)c1c(-c2ccccc2)oc2ccc(OCC)cc12
1.7%,-5%,28%,u,Cc1cc(C(=O)N[C@H](c2ccccc2)[C@@]2(C)C[C@@H]2[C@@H](C)C(=O)Nc2ccc3ccccc3c2)n(C)n1
5.2%,2%,1%,0,O=C(CSc1ccc(Cl)cc1)Nc1ccccc1N1CCN(C(=O)c2ccc(Cl)cc2)CC1
-1.9%,-7%,0%,-5,CCC(C)C(=O)Nc1ccc([N+](=O)[O-])cc1OC (centres undefined)
u,1%,10%,0,COc1ccc(C(=O)C[n+]2ccc3c(c2)nc(-c2ccc(OC)cc2OC)n3C)cc1
-0.2%,7%,-2%,3,Cn1c(SCc2ccccc2)nc(C(F)(F)F)cc1=O
2.1%,-12%,3%,6,COc1ccc(S(=O)(=O)N(C)c2ccc(C(=O)NC3CCCC3)cc2)cc1
-2.7%,9%,-3%,4,C=CCN1CCN(C(c2ccccc2OC)c2nnnn2C(C)(C)C)CC1 (centres undefined)
-0.6%,5%,-5%,-15,CC(C)=CCc1c(O)c(CC=C(C)C)c2c(c1O)C(=O)CC(c1ccc(O)cc1)O2 (centres undefined)
0.4%,39%,x,x,Cc1ccc(S(=O)(=O)Nc2c(C)n(C)n(-c3ccccc3)c2=O)cc1C(=O)NCc1ccccc1
5.3%,19%,x,x,O=C(Cn1cnc2c(NCc3ccccc3)ncnc21)NCCc1cc2ccccc2[nH]1
-6.6%,28%,-4%,-7,CO/N=C/C=C1/N(C)c2ccccc2C1(C)C
-2.2%,4%,-2%,-3,c1ccc(CNc2c3c(nc4ncnn24)CCCC3)nc1
0.0%,-7%,x,x,Cc1cc(NC(=O)CON=C(N)CC(=O)Nc2ccccc2Cl)ccc1Br
4.4%,-10%,-11%,0,COc1ccc(/C=C/C(=O)Oc2cc(O)cc(O)c2)cc1
-0.5%,-12%,1%,-1,COc1ccc(N(CC(=O)Nc2cc(C)on2)S(=O)(=O)c2cc(C)ccc2C)cc1
-0.6%,0%,-6%,-2,CCOc1ccc2nc(Cl)c(C3CC(c4ccccc4)=NN3C(=O)c3cccs3)cc2c1 (centres undefined)
0.9%,-2%,0%,-4,Fc1ccc(-c2nnc3n2CCCCC3)cc1
-5.8%,18%,6%,0,O=C(C#Cc1ccccc1)c1ccc([N+](=O)[O-])cc1
1.0%,-6%,-3%,5,O=C1NC(=O)C(CC(=O)N(c2ccccc2)C2(C(=O)NC3CCCC3)CCCCC2)N1 (centres undefined)
4.3%,-6%,2%,-5,NC(=O)CNc1n[nH]c(=S)[nH]c1=O
u,u,-3%,-7,CC1(C)CC(=O)C2=C(C1)OC(N)=C(C#N)C2C#Cc1ccccc1 (centres undefined)
1.7%,-1%,x,x,CCNC(=O)C(=O)NCCC1CCCCN1S(=O)(=O)c1cccs1 (centres undefined)
-1.8%,-7%,18%,-18,COc1ccc(CC2(CO)CCN(Cc3ccc(OC(F)(F)F)cc3)CC2)cc1
1.2%,-2%,1%,-7,O=S(=O)(c1ccc2oc3ccc(S(=O)(=O)N4CCCCC4)cc3c2c1)N1CCCCC1

Random excerpt: 2 entries already listed
Rango-impB inh,Rango dissoc inh,miR-21 FLuc,GLA inh pH 4.5,compound
-2.7%,9%,-3%,4,C=CCN1CCN(C(c2ccccc2OC)c2nnnn2C(C)(C)C)CC1 (centres undefined)
-0.6%,5%,-5%,-15,CC(C)=CCc1c(O)c(CC=C(C)C)c2c(c1O)C(=O)CC(c1ccc(O)cc1)O2 (centres undefined)

(next part)
Rango-impB inh,Rango dissoc inh,miR-21 FLuc,GLA inh pH 4.5,compound
u,u,0%,x,Cc1c(Cl)cccc1NC(=S)N1CCCCCC1
-0.3%,-13%,-8%,x,COc1ccc(-c2c(NC(=O)c3ccco3)n(C)c3ccccc3c2=O)cc1
u,u,-10%,7,CCCCn1c(=NC(=O)c2ccc3c(c2)OCO3)c(C#N)cc2c(=O)n3cccc(C)c3nc21
-2.5%,1%,x,x,O=C(NCc1cccc(Br)c1)C1CC(c2ccccc2[N+](=O)[O-])=NO1 (centres undefined)
1.0%,-7%,15%,x,COC(=O)N1c2ccccc2C=Cc2ccccc21
-3.6%,18%,0%,-16,C/C(=N\NS(=O)(=O)c1ccc(C)cc1)c1ccc(Br)s1
2.7%,10%,-3%,x,CCOC(=O)c1cccc(OCC(O)CNCCOc2ccccc2F)c1 (centres undefined)
-0.6%,0%,-2%,0,Cc1nn(Cc2ccc(Cl)cc2)c(C)c1NC(=O)/C=C/c1cnn(C)c1
3.0%,3%,-5%,x,COc1ccc(Cl)cc1NC(=O)CSc1nc(NS(=O)(=O)c2ccc(C)cc2)cc(=O)[nH]1
x,x,-16%,1,C=CC[C@@H]1C=C[C@H](O/N=C/[C@@H](NS(=O)(=O)c2ccc(C)cc2)[C@H](C)/C=C/CC(=O)OC)[C@@H](CO)O1
-0.4%,-1%,-5%,x,Cc1ccccc1OCC(=O)Nc1cnn(CCCC(=O)O)c1
0.8%,2%,0%,1,CC(=O)Nc1ccc(NC(=O)C(C)OC(=O)CNC(=O)c2sc3ccccc3c2Cl)cc1 (centres undefined)
-0.1%,11%,0%,x,Cc1c(Cc2ccccc2)c(=O)oc2cc(OCC(=O)N[C@@H](Cc3ccccc3)C(=O)O)ccc12
0.5%,7%,-9%,0,Cc1ccccc1Cn1c([N+](=O)[O-])cnc1C
-2.7%,9%,18%,-4,O=C(CSc1nnc(Cc2cccs2)n1CCc1ccccc1)N1CCCc2ccccc21
6.4%,4%,6%,x,CCCn1c(CCNC(=O)c2ccco2)nc2ccccc21
3.7%,0%,-1%,x,CC1=C(C(=O)OCc2ccccc2)C(c2ccc(Cl)cc2)NC(=O)N1C (centres undefined)
2.6%,4%,-15%,-2,O=C(CSc1nnc(-c2ccncc2)n1CC1CCCO1)Nc1ccccc1Cl (centres undefined)
-1.1%,28%,0%,-2,CCSc1nnc(-c2cnn(-c3ccccc3)c2-n2cccc2)n1C
u,u,-2%,2,CCCCN(CCCC)c1nc2ccccc2nc1NS(=O)(=O)c1ccc(NC(C)=O)cc1
-2.9%,-10%,0%,4,CCOC(=O)CSc1nnc(CNC(=O)c2ccc(S(=O)(=O)N3CCCCC3)cc2)n1C
2.9%,2%,-5%,u,CCOC(=O)C1(Cc2ccc(OC)cc2)CCN(C(=O)C2CCCO2)CC1 (centres undefined)
-0.5%,0%,-2%,x,CC12CCC(C(=O)NCc3ccccn3)(OC1=O)C2(C)C (centres undefined)
1.1%,2%,0%,-1,O=C(CCS(=O)(=O)Cc1ccccc1)N1CCN(Cc2ccccc2)CC1
-0.1%,-13%,-10%,-3,COc1ccc(CN/C=C2\CCCCC2=O)cc1

Rango-impB inh,Rango dissoc inh,miR-21 FLuc,GLA inh pH 4.5,compound
4.4%,-1%,1%,9,Cn1c(=O)c2c(nc(N3CCOCC3)n2Cc2c(F)cccc2Cl)n(C)c1=O
-1.4%,-4%,-2%,1,N/C(=N\OC(=O)C12CC3CC(CC(C3)C1)C2)c1ccncc1
1.0%,0%,u,x,O=C(Nc1ccc(F)c(F)c1)C1CCN(S(=O)(=O)c2cccc3nonc23)CC1
x,x,2%,-1,CCCn1c(SCC(=O)Nc2sc(C)c(C)c2C(=O)OC)nc2c1c(=O)n(C)c(=O)n2C
2.4%,21%,0%,7,O=C(Cc1ccc(Cl)cc1)Nc1ccc2c(c1)C(=O)NC2=O
u,-20%,-41%,4,Cc1ccc2oc(-c3ccco3)nc2c1
-1.0%,21%,1%,1,Nc1n[nH]c(-c2ccccc2[N+](=O)[O-])n1
x,x,-10%,-12,Cn1nnc2c(C(N)=O)ncn2c1=O
2.1%,1%,x,x,Cc1ccc(Cl)c(OC(=O)C2CSC3(C)CCC(=O)N23)c1 (centres undefined)
0.3%,5%,-5%,-4,CC(=O)c1cccc(NC(=O)CC2SC(N3CCCCC3)=NC2=O)c1 (centres undefined)
3.1%,7%,x,x,COCc1c(C(=O)OCC(=O)N2CCCC2=O)oc2ccccc12
0.0%,-4%,10%,x,CCOC(=O)N1C(=O)[C@](c2ccc(Cl)cc2)(C(C)C)N1C(=O)OCC
-0.5%,14%,-6%,5,Cn1c(N=Nc2ccc(N3CCOCC3)cc2)[n+](C)c2ccccc21
1.2%,9%,-69%,2,Cc1nccc(-c2cc(-c3ccc(Cl)cc3Cl)no2)n1
0.2%,14%,23%,4,CCn1c2c(c(=N)c3ccccc31)CCC2
1.1%,-3%,-1%,5,Cn1c(=O)[nH]c(=O)c2c1ncn2CCN1CCOCC1
-0.2%,-2%,-14%,-13,N#C/C(=C\N1CCOCC1)c1ccccc1
-1.1%,-7%,2%,-6,Cc1cc(C)c(NC(=O)CSc2ccc3nnc(CCNC(=O)c4ccccc4)n3n2)c(C)c1
-1.1%,6%,7%,-2,COc1cccc(CNC(=O)C(Cc2ccccc2)n2cccc2)c1 (centres undefined)
